Rango complex inh – inhibitors of Rango-importin beta complex formation; Q14974; Rango CFP/YFP FRET sensor + importin beta, 45 min; Potency, µM (series often up to 92.2 µM), for inactives: at the top dose inhibition of complex formation; hit rate 0.031% among 340,000; AID 540263; active = rising FRET ratio curve, often small or poorly fitted; inconclusive = mostly compound fluorescence or quenching in the first reads; inactive = flat curves in all reads;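 further: potency means the concentration at half of the fitted maximal effect; 0% = DMSO wells and 100% = buffer wells lacking importin beta; nearly all actives have a fitted effect of over 15% in size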
Target sequence (Q14974 whole entry, looked up): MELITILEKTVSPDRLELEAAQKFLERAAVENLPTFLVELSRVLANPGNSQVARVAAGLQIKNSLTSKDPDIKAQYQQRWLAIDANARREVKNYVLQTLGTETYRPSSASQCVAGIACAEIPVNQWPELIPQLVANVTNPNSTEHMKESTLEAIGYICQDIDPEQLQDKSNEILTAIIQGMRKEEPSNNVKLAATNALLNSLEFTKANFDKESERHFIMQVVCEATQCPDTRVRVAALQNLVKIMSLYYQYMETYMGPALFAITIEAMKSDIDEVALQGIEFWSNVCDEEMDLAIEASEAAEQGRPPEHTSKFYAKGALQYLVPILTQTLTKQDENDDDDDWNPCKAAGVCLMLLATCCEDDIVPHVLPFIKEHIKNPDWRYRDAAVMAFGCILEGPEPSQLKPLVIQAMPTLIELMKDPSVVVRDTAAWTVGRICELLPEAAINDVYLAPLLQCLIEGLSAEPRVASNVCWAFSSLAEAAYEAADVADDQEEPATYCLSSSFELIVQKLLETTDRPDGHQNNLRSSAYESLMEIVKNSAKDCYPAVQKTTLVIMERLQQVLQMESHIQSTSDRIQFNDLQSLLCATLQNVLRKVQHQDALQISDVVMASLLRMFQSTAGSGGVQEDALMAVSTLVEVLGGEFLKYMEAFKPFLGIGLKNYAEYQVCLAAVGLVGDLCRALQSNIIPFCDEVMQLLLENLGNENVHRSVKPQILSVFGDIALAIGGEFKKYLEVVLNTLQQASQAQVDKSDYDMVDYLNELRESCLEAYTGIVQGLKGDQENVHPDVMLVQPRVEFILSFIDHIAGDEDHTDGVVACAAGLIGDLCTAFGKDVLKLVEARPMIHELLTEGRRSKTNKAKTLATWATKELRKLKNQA
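Inhibition scored from the CFP 486 nm/YFP 530 nm FRET ratio 45 min after adding 0.125 microM importin beta to 50 nM Rango biosensor preincubated 5 min with compound (room temperature, PBS with DTT, Tween-20, BSA). No-importin wells as positive control.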
miR-21 FLuc – raises the signal of a miR-21 reporter. 340,000 tested, under 10 active. AID 2288. HeLa miR-21 FLuc reporter, luciferase, 48 h. Potency, µM (highest dose often 38.3 µM), for the others: at the top dose reporter change, positive = more light; active = well fitted rising curve with a large enough effect; inconclusive = small, poorly fitted or top-dose-only effect; inactive = no such curve, though single readings can be large or run the other way;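 further: % of control where 0% means no effect; miR-21 action dims this reporter so a rising signal means less miR-21 action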
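Using DMEM plus 10% FBS, HeLa miR-21-FLuc cells are incubated with test compounds (final up to about 40uM) for 48 hours; firefly luciferase signal is then imaged following reagent-mediated lysis.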
GLA inh pH 4.5 – blocks human alpha-galactosidase A at pH 4.5 | P06280 | purified enzyme, 4-MU-alpha-Gal fluorescence, pH 4.5 | activity change, negative = inhibition, % at 105 µM | 230,000 tested, under 10 active | AID 1467; inconclusive = small, poorly fitted or top-dose-only inhibition, or a rising curve; inactive = flat fitted curve, though single readings scatter; no compound was filed as active;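 further: 0% = full activity with enzyme and -100% = basal without enzyme; dose as in the result columns while the protocol names 77 µM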
Rango dissoc inh – inhibitors of RanGTP-induced Rango-importin beta complex dissociation. O95149+P62826. Potency, µM (doses to about 46.1 µM), for the others: top-dose activity change, negative = inhibition. Biochemical FRET Rango-importin beta, RanGTP-induced dissociation. AID 540253. hit rate 0.071% among 340,000; active means falling FRET ratio curve, often poorly fitted, with flat reads before Ran was added; inconclusive means other falling curves, or compound fluorescence or quenching; inactive means flat or rising ratio curve;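 further: potency means the concentration at half of the fitted maximal effect; % of control where 0% means no effect; nearly all actives have a fitted effect of over 45% in size; -100% = wells without RanGTP and RCC1; the record marks most hits as doubtful in a second field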
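Compounds sat 5 min at room temperature with 0.1 uM Rango biosensor plus 0.25 uM importin beta, then FRET pre-read. RanGTP-RCC1 (0.6 uM Ran, 2mM GTP, 0.2 uM RCC1) added for 45 min, and the CFP/YFP post-read measured blocked complex dissociation.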
Active calls of the source: *; ? = inconclusive; . = not tested or not shown; & = joins results of further samples.

Rango complex inh | miR-21 FLuc | GLA inh pH 4.5 | Rango dissoc inh | Molecule
3.2% | -28% | . | -13% | COc1ccc(C(=O)CC(=O)c2ccc(C)cc2)c(O)c1
4.6% | . | . | -4% | CCOC(=O)[C@H]1[C@H]2COc3ccccc3[C@@H]2N2C(=O)c3cc(C)ccc3NC(=O)[C@@]12C
-4.3% | -4% | -3 | 14% | Cc1cc2ncn(C(=O)c3c(-c4ccccc4Cl)noc3C)c2cc1C
-4.0% | . | . | 3% | C[C@@]12C(=O)Nc3ccccc3C(=O)N1[C@H]1c3cc(Cl)ccc3OC[C@@H]1[C@@H]2c1ccccc1
-0.5% | 4% | -7 | -2% | Cc1nn(CCC#N)c(NC(=O)c2ccc(Cl)cc2)c1P(=O)(Nc1ccc([N+](=O)[O-])cc1)N1CCOCC1 (configuration not stated)
0.1% | ? | -4 | -6% | O=C(CN(c1cccc(C(F)(F)F)c1)S(=O)(=O)c1ccc(Cl)c([N+](=O)[O-])c1)NCc1ccc(F)cc1
-3.8% | 10% | 8 | -7% | CN(C)C(=O)c1ccc2c(c1)C1C3CCC(C3)C1C(c1ccccc1)N2 (configuration not stated)
-2.8% | 1% | 4 | 1% | CN1CCN(C(=S)Nc2ccccc2Cl)CC1
0.5% | . | . | 6% | CC(NC(=O)c1ccco1)C(=O)OCc1cccc(C(F)(F)F)c1 (configuration not stated)
2.5% | . | . | -2% | CN(C)C(=O)CCc1ccc2c3c([nH]c2c1)[C@]1(C)[C@@H](C(=O)N2CCCCC2)C[C@H](CC(=O)NCC24CC5CC(CC(C5)C2)C4)C(=O)N1CC3
0.2% | -3% | . | -12% | CCOc1ccc(S(=O)(=O)NC(C)C(=O)NCc2ccc3c(c2)OCO3)cc1 (configuration not stated)
0.0% | -1% | 7 | -19% | O=C(O)c1ccc(NS(=O)(=O)c2ccc3c(c2)C(=O)c2cc(S(=O)(=O)Nc4ccc(C(=O)O)cc4)ccc2-3)cc1
-0.8% | -22% | -4 | 15% | O=C(NC(=Nc1ccccc1)N1CCOCC1)Nc1ccccc1
-0.3% | -9% | -2 | -10% | COc1ccc(OC)c(-n2c(-c3cccc(S(=O)(=O)N(C)C)c3)n[nH]c2=S)c1
? | -51% | -2 | ? | COc1ccc2c(c1)S/C(=C\C(=O)c1ccncc1)N2C
0.9% | -3% | 1 | -4% | CCOc1ccccc1N1CCN(C(=O)c2c(-c3ccccc3Cl)noc2C)CC1
2.5% | -4% | 5 | 1% | O=C1c2ccccc2C(=O)N1CCCc1nc(-c2ccncc2)no1
2.6% | -2% | 2 | 4% | COc1ccc(-n2c(-c3ccco3)n[nH]c2=S)cc1
6.0% | 21% | 6 | -3% | CCOc1ccccc1NC(=O)/C=C/C(N)=O
-0.6% | -5% | . | 11% | Cc1ccc(N(CC(=O)NC2CCCCC2)C(=O)CNC(=O)c2ccco2)cc1F
-0.9% | . | . | 24% | Cc1ccc(NC(=O)Cn2c(C)csc2=O)cc1
0.7% | -1% | . | 16% | Cn1cnc2c(cnn2-c2ccccc2)c1=O
2.5% | . | . | 18% | CCOc1ccc(C(=O)N2CCN(CC(=O)N3CCCC3)CC2)cc1OCC
-3.0% | -9% | 5 | -1% | Cc1ccc(C)c2[nH]c(=O)c(CCNC(=O)c3cc4ccccc4o3)cc12
-1.9% | -24% | -5 | -10% | COC(=O)c1sccc1NC(=O)COc1cccc(C)c1
0.4% | 16% | 5 | 3% | O=C(NCC1CCCO1)C(c1ccc(F)cc1)N(C(=O)Cn1nnc(-c2ccc(F)cc2)n1)c1cccc(O)c1 (configuration not stated)
-1.9% | -14% | -12 | 0% | CC(/C=N/NC(=O)Cn1nccc1C)=C\c1ccc(C(C)C)cc1
-3.4% | -13% | 8 | 25% | CCCCC(=O)Nc1c(C)cc(C)cc1Cl
-1.9% | -1% | -3 | 0% | CC1CCCCN1C(=O)C1CCCCN1S(=O)(=O)c1cccc([N+](=O)[O-])c1 (configuration not stated)
-2.0% | -6% | -10 | 4% | c1ccc2c(c1)CNc1ccccc1C2
2.4% | 0% | 0 | 2% | COc1ccc(-n2nc3c(c2NC(=O)c2ccc(S(=O)(=O)N4CCOCC4)cc2)CS(=O)C3)cc1 (configuration not stated)
? | -5% | 1 | ? | NC(=O)c1sc(=S)n2c1[nH]c(=O)c1sccc12
-0.4% | 11% | -1 | 8% | COc1ccccc1OCC(O)Cn1c(Br)nc2c1c(=O)[nH]c(=O)n2C (configuration not stated)
0.4% | 0% | -4 | 6% | Cn1c(Cc2ccccc2)[n+](C)c2ccccc21
-0.8% | 14% | . | 5% | Cc1ccccc1CN1CCCC(C(=O)Nc2ccc(-c3ccn[nH]3)cc2)C1 (configuration not stated)
-7.4% | . | . | -7% | Cc1cc(NC(=O)CSCC(=O)Nc2cc(C(F)(F)F)ccc2N2CCOCC2)no1
0.2% | -1% | 1 | 0% | CC(=O)/C(C(=N)N1CCN(Cc2ccccc2)CC1)=C(\C)O
-4.0% | -7% | . | -7% | O=C(CSc1nncn1-c1ccccc1)Nc1ccccc1
-0.8% | 1% | -2 | 9% | CCN(CCCNC(=O)CN1C(=O)COc2ccccc21)c1cccc(C)c1
3.3% | -23% | -11 | -9% | CC1CCN(C(=O)Cn2cc3c(n2)CCCC3)CC1
2.5% | . | . | -3% | CSCCC(NS(=O)(=O)c1ccccc1F)C(=O)NNC(=O)c1csc(N2CCOCC2)n1 (configuration not stated)
4.7% | -3% | . | -2% | O=C(O)c1nn(-c2cccc(C(F)(F)F)c2)ccc1=O
1.5% | . | . | -12% | CCOC(=O)c1cccc(-n2cccc2/C=C2\NC(=O)N(CC(=O)O)C2=O)c1
0.6% | -4% | . | -6% | CC(C)OCC(O)Cn1c(N2CCCC2)nc2c1c(=O)n(C)c(=O)n2C (configuration not stated)
-2.9% | -9% | 1 | -16% | CCn1c(SCC(=O)N2CCCC2)nnc1-c1ccc(N)cc1
2.1% | 17%&21% | . | 0% | Cc1ccccc1C(=O)Nc1ccc2c(c1)CCCN2C(=O)c1cccs1
-0.2% | -1% | -8 | -9% | CCOC(=O)c1c(C)sc2c1N(C(=O)CN(CC)CC)c1cc(Cl)ccc1S2
-0.1% | -2% | 11 | 2% | CC(C)O/C(=N\S(=O)(=O)c1ccc(Cl)cc1)c1ccccc1
0.1% | 11% | -3 | -5% | CCOC(=O)C(c1ccccc1)C(Nc1ccccc1)c1ccccn1 (configuration not stated)
-1.3% | -34% | 3 | -12% | COc1cc(C2c3c(n[nH]c3C)C(=O)N2c2ccc(Br)cc2)ccc1O (configuration not stated)

Remaining list, next part:
Rango complex inh | miR-21 FLuc | GLA inh pH 4.5 | Rango dissoc inh | Molecule
-0.2% | -1% | . | -1% | Cc1ccccc1CNS(=O)(=O)c1c(C)[nH]c(C)c1C(=O)N1CCCCC1
0.1% | . | . | -7% | O=C(Nc1ccccc1F)c1ccc(S(=O)(=O)N2CCCCCC2)cc1
-1.7% | -3% | . | -5% | Cc1cc(C)n(-c2ccc(NC(=O)C3CCN(Cc4cc(C)c(C)o4)CC3)cc2)n1
-4.7% | -2% | 5 | 0% | Cc1ccc(N(C(=O)CCC(=O)Nc2cc(C)on2)C(C(=O)NC2CCCC2)c2ccccc2)cc1 (configuration not stated)
-0.3% | -4% | 6 | 15% | Cc1cc(C)cc(OCC(=O)NNC(=O)CCN2C(=O)c3ccccc3C2=O)c1
-0.7% | 8% | -3 | 5% | CCC(=O)Nc1ccc(Nc2nc(C)c([N+](=O)[O-])c(Nc3ccc(NC(=O)CC)cc3)n2)cc1
? | -8% | 0 | -14% | O=C(O)c1ccc2c(c1Nc1ccccc1)C(=O)c1ccccc1C2=O
-2.1% | -3% | -6 | -9% | CN(C(=O)COc1ccc(S(=O)(=O)N2CCOCC2)cc1[N+](=O)[O-])C1CCS(=O)(=O)C1 (configuration not stated)
-1.8% | 1% | . | 1% | O=C(C1CCC(=O)N(C2CCCC2)C1)N1CCN(c2ccc(Cl)cc2)CC1 (configuration not stated)
-1.4% | 1% | 0 | 1% | CN1C(=O)c2ccc(NC(=S)NC(=O)C(C)(C)C)cc2C1=O
-2.5% | 0% | 1 | -9% | OCCC1CN(Cc2ccon2)CCN1Cc1ccc(F)c(F)c1 (configuration not stated)
-0.6% | -5% | -4 | -8% | Cc1ccc(CN(Cc2ccco2)S(=O)(=O)c2ccc(S(=O)(=O)NCC3CCCO3)cc2)cc1 (configuration not stated)
0.0% | -59% | -8 | -1% | Cc1ccc(Nc2nnc(SCC(=O)c3cc4ccccc4o3)s2)cc1C
1.6% | -73% | 4 | -10% | COC(=O)c1ccc(NC(=S)Nc2ccccn2)cc1
1.8% | -5% | 7 | 13% | C=CCNC(=O)NC(=O)COC(=O)COc1ccc(Br)cc1F
4.9% | -2% | 1 | 11% | Cc1nnc(SCCN2CCOCC2)n1C
2.7% | -10% | -3 | -4% | O=S(=O)(c1ccccc1Cl)N1CCC(O)(c2ccc3c(c2)OCO3)CC1
1.4% | -5% | . | 40% | CCOC(=O)CCc1c(C)nc(SCc2ccc(C(=O)O)cc2)c(C#N)c1C
-1.3% | -3% | . | 0% | CCCc1cc(=O)oc2c3c(cc(OCC(=O)N4CCC[C@H]4C(=O)O)c12)OC(C)(C)CC3
1.4% | -8% | . | 11% | CSC(=NC#N)N1CCN(C(c2ccccc2)c2ccccc2)CC1
? | 0% | -2 | 0% | Cc1nn(C(=O)c2ccc([N+](=O)[O-])cc2)c(C)c1Br
-1.2% | 7% | . | -6% | COc1ccccc1NC(=O)COC(=O)CCS(=O)(=O)c1ccc(C)cc1
2.3% | -1%&-1% | . | 0% | CCC1CN(S(=O)(=O)c2cc(-c3cc(C)no3)ccc2OC)c2cc(C)ccc2O1 (configuration not stated)
? | -3% | 16 | ? | CNC(=O)c1cc2cc(OC)ccc2oc1=O
? | 0% | -11 | -10% | CCCC/C(O)=C1\C(=O)CC(C)(C)CC1=Nc1ccc(OC)cc1

Molecules from the list above with an aryl thioether with sulfur outside any ring:
Rango complex inh | miR-21 FLuc | GLA inh pH 4.5 | Rango dissoc inh | Molecule
-4.0% | -7% | . | -7% | O=C(CSc1nncn1-c1ccccc1)Nc1ccccc1
-2.9% | -9% | 1 | -16% | CCn1c(SCC(=O)N2CCCC2)nnc1-c1ccc(N)cc1
0.0% | -59% | -8 | -1% | Cc1ccc(Nc2nnc(SCC(=O)c3cc4ccccc4o3)s2)cc1C
4.9% | -2% | 1 | 11% | Cc1nnc(SCCN2CCOCC2)n1C
1.4% | -5% | . | 40% | CCOC(=O)CCc1c(C)nc(SCc2ccc(C(=O)O)cc2)c(C#N)c1C

Continuation.
Rango complex inh | miR-21 FLuc | GLA inh pH 4.5 | Rango dissoc inh | Molecule
2.7% | 26% | . | 6% | COc1cccc(/C=N/NC(=O)c2ccncc2)c1OC(=O)c1ccc(Br)cc1
0.7% | -7% | -5 | -6% | CC(=O)Nc1ccc(OC(=O)CC2SC(=O)NC2=O)cc1 (configuration not stated)
-0.1% | -15% | -5 | 12% | Cc1ccc(NC(=O)COc2ccc(/C(N)=N/O)cc2)cc1C
-4.0% | 7% | 2 | -3% | O=S(=O)(c1ccc(Cl)nc1)N1CCN(c2ncccn2)CC1
0.1% | 6% | . | -16% | CCCOc1ccccc1C(=O)N(Cc1cccc(Br)c1)C1CCS(=O)(=O)C1 (configuration not stated)
-4.2% | -18% | -3 | -13% | Cn1ncc(Br)c1C(=O)Nc1c(F)c(F)cc(F)c1F
-1.0% | 2% | . | 7% | COc1ccc(-c2sc3ccc(N4CCOCC4)cc3c2-c2ccc(OC)c(F)c2)cc1
-0.7% | . | . | -10% | COc1ccc(CC(=O)Nc2nccs2)cc1S(=O)(=O)N1CCOCC1
? | . | . | 10% | O=C(O)c1cc(O)c2c(c1)[C@@H]([C@H]1c3cc(C(=O)O)cc(O)c3C(=O)c3c(O[C@@H]4O[C@H](CO)[C@@H](O)[C@H](O)[C@H]4O)cccc31)c1cccc(OC3O[C@H](CO)[C@@H](O)[C@H](O)[C@H]3O)c1C2=O (some centres not stated)
-0.8% | . | . | 15% | CCOC(=O)C1CCN(C(=O)COC(=O)c2ccccc2OCC)CC1

This is a subset, so the mix of outcomes need not match the whole.
